Source: PubChem BioAssay (National Center for Advancing Translational Sciences (NCATS))
Menin-MLL FL inh – qHTS Assay for Inhibitors Targeting the Menin-MLL Interaction in MLL Related Leukemias: Competition With Fluorescein Labeled MLL-derived Peptide; Fluorescence polarization, fluorescein-MLL peptide displacement from menin; FP activity change, % at 61.4 µM; 290,000 tested, under 10 active; inconclusive = falling polarisation curve, or a change in total fluorescence; inactive = total fluorescence flat and polarisation flat or rising; no compound was filed as active; the % refers to the polarisation; negative = inhibition;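 also: % of control where 0% means no effect; inhibitors lower the polarisation; unlabelled MLL peptide was the positive control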
ClpP mod – qHTS Assay for Activators of ClpP. ATP-dependent Clp protease proteolytic subunit (Bacillus subtilis (strain 168)), P80244. purified B. subtilis ClpP, FRET peptide cleavage, 20 min. Potency, µM (highest dose often 57.5 µM), for the others: at the highest dose activity change, negative = active. hit rate 1.9% among 340,000; active = well fitted falling curve with a large enough effect; inconclusive = small, poorly fitted or top-dose-only effect; inactive = no such curve, though single readings can be large or run the other way; also: potency is read from the fitted curve at half-maximal effect; the source files actives as falling curves though it sought activators and does not explain the sign; nearly all actives have a fitted effect of over 65% in size; many hits overshoot -100%
Target sequence (P80244 whole entry, looked up): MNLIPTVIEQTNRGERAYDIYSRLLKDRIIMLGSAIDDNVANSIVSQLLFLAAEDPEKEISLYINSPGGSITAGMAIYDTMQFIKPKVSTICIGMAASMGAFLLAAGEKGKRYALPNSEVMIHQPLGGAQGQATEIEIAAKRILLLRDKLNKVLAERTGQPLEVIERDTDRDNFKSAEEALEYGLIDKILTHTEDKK
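FRET quenching reversal measured ClpP activation: 10 microg/mL B. subtilis ClpP at pH 8 with the FRET-FV decapeptide, read at 430 nm after 320 nm excitation. The 20-min minus 0-min signal was scaled between DMSO/no-enzyme wells and ADEP (5.8 microM final).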
TRPV1 potentiator – HTS Assay for Compounds that Act as Potentiators of the Vanilloid Receptor 1; hit rate 0.02% among 320,000; potentiation, % at 8.33 µM; TRPV1-expressing cells, Fluo-8 calcium influx, capsaicin EC20 potentiation; host cell line not named in the record; control for the full effect not named in the record; AID 540277, 2011; active means potentiation above 80%; inconclusive means 30% to 80%; inactive means below 30%; also: 0% is about no effect
Target sequence (Q8NER1 whole entry, looked up): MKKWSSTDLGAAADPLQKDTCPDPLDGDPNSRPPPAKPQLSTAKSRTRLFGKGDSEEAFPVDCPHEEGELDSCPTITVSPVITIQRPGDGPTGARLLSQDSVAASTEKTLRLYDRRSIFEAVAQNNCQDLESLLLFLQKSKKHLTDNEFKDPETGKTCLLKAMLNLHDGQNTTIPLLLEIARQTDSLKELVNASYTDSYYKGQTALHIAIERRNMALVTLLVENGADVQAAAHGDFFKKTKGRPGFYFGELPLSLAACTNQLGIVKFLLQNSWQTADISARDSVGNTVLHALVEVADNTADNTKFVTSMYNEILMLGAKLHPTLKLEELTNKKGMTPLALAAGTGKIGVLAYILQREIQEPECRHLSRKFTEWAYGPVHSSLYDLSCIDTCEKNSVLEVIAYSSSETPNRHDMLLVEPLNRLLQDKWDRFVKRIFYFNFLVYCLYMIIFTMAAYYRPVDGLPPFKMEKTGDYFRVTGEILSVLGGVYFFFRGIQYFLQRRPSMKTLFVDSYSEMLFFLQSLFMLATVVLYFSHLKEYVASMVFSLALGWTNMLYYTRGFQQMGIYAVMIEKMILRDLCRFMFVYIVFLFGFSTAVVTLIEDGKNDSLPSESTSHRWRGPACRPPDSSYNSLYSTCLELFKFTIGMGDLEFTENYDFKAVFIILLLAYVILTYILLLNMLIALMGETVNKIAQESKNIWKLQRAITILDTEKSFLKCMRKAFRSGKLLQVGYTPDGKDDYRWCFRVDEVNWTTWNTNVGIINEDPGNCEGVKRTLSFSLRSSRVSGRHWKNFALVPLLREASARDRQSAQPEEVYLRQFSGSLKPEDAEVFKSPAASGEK
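TRPV1-expressing cells were cultured overnight at 35.5C and loaded with Fluo-8 calcium dye for 40 to 90 min at room temperature. After a 10 s baseline, compound was added and calcium influx was read kinetically for 3 min (ex 480/em 520 nm).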
gsp antagonist – qHTS for Antagonists of gsp, the Etiologic Mutation Responsible for Fibrous Dysplasia/McCune-Albright Syndrome: qHTS. gsp-mutant cells, cAMP HTRF, 30 min; control for the full effect not named in the record. Potency, µM (doses to about 76.9 µM), for the others: top-dose activity change, negative = inhibition, usual class: inhibitors. hit rate 0.4% among 340,000; active = falling curve of any shape with a large fitted effect; inconclusive = falling curve, mostly with a smaller effect; inactive = flat or rising curve; cell line not stated here;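 also: intracellular cAMP measured with PDE inhibitor Ro 20-1724 present during compound exposure; potency is read from the fitted curve at half-maximal effect; % is scaled to controls: 0 for no effect and ±100 for the full control effect; nearly all actives have a fitted effect of over 65% in size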
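Cells in G418 medium, seeded 16-24 h, 37C; buffer exchange to DPBS + 1 mM CaCl2, 0.5 mM MgCl2, 0.05% BSA; cpds in DMSO + […] (300 uM stock), 30 min 37C; HTRF cAMP detection.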
CtBP-E1A blk – qHTS Assay for Inhibitors of the CtBP/E1A Interaction; CtBP / adenovirus E1A interaction (AlphaScreen); activity change, % (test concentration not listed); hit rate 0.49% among 340,000; AlphaScreen GST-E1A/His-CtBP binding, 1536-well; hits give low values; control for the full effect not named in the record; AID 651724, 2012; in the data active means activity change below about -65%; inconclusive means about -30% to -65%; inactive means above about -30%; also: % is scaled to controls: 0 for no effect and ±100 for the full control effect; compound concentration not given in the record
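Homogeneous bead-based format: GST-tagged E1A captured on glutathione donor beads, His-tagged CtBP on nickel acceptor beads; compounds precede bead addition by 2 h at 37 °C.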
Sfp PPTase inh – qHTS Assay for Inhibitors of Bacillus subtilis Sfp phosphopantetheinyl transferase (PPTase); 4'-phosphopantetheinyl transferase ffp (Bacillus subtilis), Q9F4F7; Biochemical Sfp PPTase activity, qHTS; Potency, µM, without a hit: max response, negative = inhibition, usual class: inhibitors; hit rate 3.5% among 310,000; AID 1490, 2009; active = well fitted inhibition curve with a large enough effect; inconclusive = small, poorly fitted or top-dose-only effect, or another doubt; inactive = no such curve, though single readings can be large or run the other way;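 also: the enzyme is Sfp with the accession as filed and its product quenches rhodamine fluorescence; potency is read from the fitted curve at half-maximal effect; 0% = enzyme reaction without inhibitor and -100% = no enzyme wells; top concentration of the series not given in the record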
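With Hepes-Na pH 7.6 buffer containing 10 mM MgCl2, Sfp (15 nM) modified BHQ-2-YbbR (12.5 uM) using rhodamine-CoA (5 uM). Two reads 30 minutes apart at 525/598 nm yielded each well's rate.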
gsp ag – qHTS for Agonist of gsp, the Etiologic Mutation Responsible for Fibrous Dysplasia/McCune-Albright Syndrome: qHTS. gsp mutant cells, cAMP HTRF, 30 min; control for the full effect not named in the record. Potency, µM (titrated, usually from 76.9 µM), for inactives: at the highest dose activation (cAMP increase), usual class: activators. hit rate 0.13% among 340,000; active = well fitted activation curve with a large enough effect; inconclusive = small, poorly fitted or top-dose-only effect, or another doubt; inactive = no such curve, though single readings can be large or run the other way; cell line not stated here;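 also: phosphodiesterase inhibitor Ro 20-1724 added with compounds to block cAMP breakdown; potency is read from the fitted curve at half-maximal effect; nearly all actives have a fitted effect of over 60% in size; about a fifth of the inactives were tested at one dose only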
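Cells stably selected in G418 were plated at 2000/well, grown 16-24 hr, then given compounds in DMSO with the PDE inhibitor […] (300 uM solution added) for 30 min at 37C; cAMP was read by HTRF.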
* = called active by the depositor; ? = inconclusive; . = no result given; [ ] = dose if it differs, or a comment.

SMILES	Menin-MLL FL inh	ClpP mod	TRPV1 potentiator	gsp antagonist	CtBP-E1A blk	Sfp PPTase inh	gsp ag
CCN(CC)CCNC(=O)Cn1c(C)cc2ccccc2c1=O	0.2	?	22	11%	3	24%	14%
Cc1cccnc1NC(=O)c1ccc(S(=O)(=O)N2CCCCCC2)cc1	.	-3.5%	4	8%	-4	.	-19%
COc1cc(/C=N/NC(=O)C(Cc2c[nH]c3ccccc23)NC(=O)OCC(C)C)cc([N+](=O)[O-])c1OCc1ccccc1 (centres undefined)	-2.0	2.0%	20	-1%	-10	16%	-38%[inhibitor]
O=C1CC(c2ccccc2)CC2=C1C(c1ccccn1)Nc1ccccc1N2 (centres undefined)	0.8	-15%	-15	-2%	2	13%	-9%
O=C(CN1CCc2ccccc2C1)NC1CCCC1	-0.7	0.8%	-2	1%	.	0%	-40%[inhibitor]
O=C(O)c1cccc(Nc2ncnc3c2cnn3-c2ccccc2)c1	1.2	-9.1%	-4	-12%	?	13%	3%
NS(=O)(=O)c1ccc(-c2ccc(/C=N/NC(=O)c3ccccc3O)o2)cc1	1.6	-6.9%	13	-2%	.	-25%	3%
CC(=O)Nc1ccccc1OCC(=O)N(Cc1ccccc1)C(C)C	3.8	-0.9%	2	-22%	2	-3%	10%
Cc1ccc(C2(C)NC(=O)N(CC(=O)NCc3cccc(Cl)c3)C2=O)cc1 (centres undefined)	8.9	0.9%	-7	-13%	0	-5%	?
CCn1c(C)c(C)c2cc(C(=O)NCCCN3CCCC3)ccc21	?	-29%	3	6%	-3	-4%	3%
CNc1c([N+](=O)[O-])cnn1-c1ccccc1F	0.8	.	11	14%	2	-6%	0%[15.4 µM]
CC(=O)Nc1cc2c(cc1[N+](=O)[O-])-c1ccc(F)cc1C2	.	1.4%	.	-12%	2	.	-5%
CCN(CC)S(=O)(=O)c1ccc(C)c(NC(=O)COC(=O)CN2C(=O)NC(C)(C)C2=O)c1	.	1.8%	5	4%	15	.	-1%
Fc1ccc2cnc(-c3cccnc3)cc2c1	.	-16%	.	-3%	.	.	30%
C/C(=N/NC(=O)CN1CCN(Cc2ccccc2Cl)CC1)c1cccs1	0.1	-0.9%	2	-5%	.	3%	0%
Cc1ccc(C)n1-c1nn(S(=O)(=O)c2cccc(C(F)(F)F)c2)c2cccc(F)c12	3.9	.	-3	1%	2	-13%	-17%[15.4 µM]
CCOC(=O)N1CCN(C(=O)CN(Cc2ccccc2)S(=O)(=O)c2ccc(OC)c(Cl)c2)CC1	6.3	-4.5%	9	-12%	-4	-1%	53%
CCOc1cc(-c2noc(CCC(=O)NC3CCCCC3)n2)ccc1OC	6.9	0.0%	17	-15%	-6	11%	-9%[15.4 µM]
O=C(Nc1cccnc1)c1ccc(Br)s1	-1.8	1.1%	-7	13%	3	13%	?
CC(=O)Nc1ccc(S(=O)(=O)NCCC(=O)OCCN2C(=O)c3ccccc3C2=O)cc1	1.8	-3.0%	-16	-6%	1	9%	-3%
CC1CCCC(C)N1CCOc1cc(N)ccc1C#N (centres undefined)	.	.	.	3%	1	.	1%
Cc1ccc(C(=O)OCC(=O)Nc2ccc(N3CCOCC3)cc2)cc1	.	32µM*	17	5%	6	.	-43%
C=C1C(=O)O[C@@H]2[C@H]3O[C@]3(C)CC/C=C(\C)CC[C@@H]12	.	-1.4%	.	-9%	0	-25%	.
O=C(Nc1ccc(NC(=O)c2cccs2)cc1)c1ccccc1	0.7	.	?	12%	0	?	-1%[15.4 µM]
COc1ccc(CCNC(=O)CSC2=Nc3ccccc3C3=NC(C(C)C)C(=O)N23)cc1OC (centres undefined)	3.6	-4.2%	5	-3%	2	13%	0%[15.4 µM]
Further results follow:
SMILES	Menin-MLL FL inh	ClpP mod	TRPV1 potentiator	gsp antagonist	CtBP-E1A blk	Sfp PPTase inh	gsp ag
Cc1[nH]c2ccccc2c1C(=O)C(=O)N1CCN(C)CC1	-2.0	.	5	11%	-1	21%	-23%[15.4 µM]
CC(=O)N1N=C(c2cccc(NS(C)(=O)=O)c2)CC1c1ccc2c(c1)OCO2 (centres undefined)	-1.1	-2.2%	-14	-15%	-5	-6%	-2%
CCOc1cc(CNCCc2ccc(S(N)(=O)=O)cc2)ccc1OCc1ccccc1	.	-0.5%	-8	5%	-5	11µM*	1%
Cc1cccc(C)c1NC1=C(Cl)C(=O)OC1OC(C)C (centres undefined)	2.5	-1.6%	11	3%	-22	1%	-2%[15.4 µM]
COc1ccc(C(=O)NCc2nnc(SCCOc3ccccc3)n2C)cc1	-1.1	0.6%	0	-9%	-1	9%	-4%[15.4 µM]
COc1ccc(NC(=O)Nc2cccc3c2O[C@H](CN(C)S(=O)(=O)c2cn(C)cn2)[C@@H](C)CN([C@H](C)CO)C3=O)cc1	.	1.3%	.	5%	6	.	8%
COc1cccc(-c2c(C#N)c(N)nc3c2c(=O)nc2sccn23)c1	-0.5	.	-10	.	.	18%	.
CC1CC(=O)N(c2ccc(NCc3ccccc3Cl)c([N+](=O)[O-])c2)C1=O (centres undefined)	2.9	0.3%	11	4%	-21	-17%	-3%
O=C(Nc1ccc(F)cc1)C1CCN(C(=O)c2ccc([N+](=O)[O-])cc2)CC1	3.8	1.7%	-1	5%	.	4%	?
COc1ccc(NS(=O)(=O)c2ccc3c(c2)NC(=O)C(C)S3)cc1 (centres undefined)	0.9	-0.2%	0	-11%	-1	10%	3%
O=C(c1cnn2c(C(F)F)cc(-c3ccccc3)nc12)N1CCc2ccccc21	0.0	.	-7	-2%	7	-2%	20%
CCC(C)(NC(=O)c1ccc(=O)[nH]c1)C(=O)NC1CCCC1 (centres undefined)	-0.8	-0.2%	-5	9%	6	7%	27%
CC1Cc2ccccc2N1C(=O)CSc1nc2cc3c(cc2cc1C#N)OCO3 (centres undefined)	5.5	-5.6%	2	-2%	1	-4%	20%
OCC[C@H]1C[C@@H](O)[C@H](O)[C@@]2(Cc3ccccc3O2)O1	.	-1.6%	1	12%	5	.	.
CN(C(=O)CSc1nc(N)cc(=O)[nH]1)C1CCCCC1	.	-1.5%	.	.	0	.	42%
CCN(CC)S(=O)(=O)c1ccc(C(=O)NCc2cccs2)cc1	2.4	-2.4%	-34	13%	-8	-4%	1%
Nc1ncnc2c1ncn2[C@@H]1O[C@H](CNCc2ccc(OCC(=O)Nc3ccccn3)cc2)[C@@H](O)[C@H]1O	.	-2.5%	.	11%	0	.	.
CC(OC(=O)/C(C#N)=C/c1ccco1)C(=O)N(C)c1ccccc1 (centres undefined)	.	.	.	-8%	0	.	4%
C[n+]1c(-c2ccccc2)cc2c(=Cc3ccccc3)c3ccccc3n21	.	-7.1%	.	-11%	21	.	?
COc1cc(C)ccc1OCCCOc1ccccc1Br	1.0	-1.3%	-1	-2%	10	-10%	15%
CC(Oc1ccccc1)C(=O)NN1Cc2ccccc2C1=N (centres undefined)	0.3	.	-6	-7%	1	-7%	0%
CC(C)CNS(=O)(=O)c1ccc(OCC(=O)NCc2ccco2)cc1	3.8	-1.7%	25	2%	-3	2%	-1%[15.4 µM]
CCOC(=O)/C(C#N)=C1/C=CNC(=O)N1	4.3	-4.5%	-8	4%	-6	-15%	?
CCOc1ccc(C(F)(F)F)cc1NC(C)=O	4.2	1.1%	-22	4%	6	19%	-13%
O=C1C(=C(c2ccccc2)N2CCOCC2)Cc2ccccc21	.	-0.2%	.	.	1	.	-16%
The results go on.
SMILES	Menin-MLL FL inh	ClpP mod	TRPV1 potentiator	gsp antagonist	CtBP-E1A blk	Sfp PPTase inh	gsp ag
O=C(c1ccc2c(c1)C(=O)N(Cc1ccncc1)C2=O)N1CCN(S(=O)(=O)c2ccc(OC(F)(F)F)cc2)CC1	.	-2.7%	.	8%	-11	.	?
CCOC(=O)c1sc(NC(=O)c2cccnc2)nc1C	-2.6	-2.0%	3	-6%	8	7%	-29%
N#Cc1c(SCc2cccc(Cl)c2)sc(C(=O)c2ccccc2)c1N	2.3	-30%	-9	1%	6	10%	-32%[inhibitor]
COC(=O)c1ccccc1NC(=O)COC(=O)/C=C/c1cccs1	.	-0.5%	.	-9%	18	.	28%[15.4 µM]
Fc1ccccc1-n1cn[nH]c1=S	1.6	-1.7%	-4	4%	.	-5%	?
CCCn1c(=O)c(C(=O)NCc2ccccc2)c(O)c2ccccc21	-0.4	.	-1	-1%	12	1%	13%
CC(=O)c1ccc(N2CCN(S(=O)(=O)c3cc4c(cc3C)NC(=O)CO4)CC2)cc1	.	2.9%	0	1%	.	-12%	7%
CCc1ccc(NC(=O)c2c(Cl)nc(C)c(Cl)c2C)cc1	-1.3	43%	-12	-9%	0	3%	1%[15.4 µM]
CC(=O)N1CCN(c2ccc(NC(=O)c3ccccc3C)cc2)CC1	3.8	-2.3%	11	1%	-4	1%	15%[15.4 µM]
CC1(c2cccc(Br)c2)NC(=O)N(CC(=O)c2ccc3c(c2)OCCO3)C1=O (centres undefined)	.	-4.8%	.	-5%	-3	.	-54%[inhibitor]
CN=C(Nc1cc(C)nn1CCC#N)c1ccc(F)cc1	1.0	-2.9%	7	2%	6	7%	2%
CCN(C(=O)COC(=O)c1ccc2[nH]c(C)c(C)c2c1)c1c(N)n(Cc2ccccc2)c(=O)[nH]c1=O	.	-1.8%	.	-2%	-1	.	-11%

An excerpt from above with just Menin-MLL FL inh and TRPV1 potentiator:
| molecule | Menin-MLL FL inh | TRPV1 potentiator |
| --- | --- | --- |
| CCc1ccc(NC(=O)c2c(Cl)nc(C)c(Cl)c2C)cc1 | -1.3 | -12 |
| CC(=O)c1ccc(N2CCN(S(=O)(=O)c3cc4c(cc3C)NC(=O)CO4)CC2)cc1 | . | 0 |
| N#Cc1c(SCc2cccc(Cl)c2)sc(C(=O)c2ccccc2)c1N | 2.3 | -9 |
